ClpP mod: qHTS Assay for Activators of ClpP. Potency, µM (highest dose often 57.5 µM), without a hit: at the top dose activity change, negative = active. AID 651965, 2013. ATP-dependent Clp protease proteolytic subunit (Bacillus subtilis (strain 168)), P80244. 1.9% of 340,000 active. purified B. subtilis ClpP, FRET peptide cleavage, 20 min; active = well fitted falling curve with a large enough effect; inconclusive = small, poorly fitted or top-dose-only effect; inactive = no such curve, though single readings can be large or run the other way; further: the source files actives as falling curves though it sought activators and does not explain the sign; nearly all actives have a fitted effect of over 65% in size; many hits overshoot -100%
Target sequence (P80244 whole entry, looked up): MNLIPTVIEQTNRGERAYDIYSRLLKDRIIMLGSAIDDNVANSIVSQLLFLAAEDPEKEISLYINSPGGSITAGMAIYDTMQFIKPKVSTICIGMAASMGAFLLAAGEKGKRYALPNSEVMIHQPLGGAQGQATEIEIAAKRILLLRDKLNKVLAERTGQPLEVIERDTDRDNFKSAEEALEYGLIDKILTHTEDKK
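Buffer: 100 mM Tris/HCl pH8, 100 mM KCl, 0.05% low protease BSA, 2.5% glycerol, 0.01% Tween-20. ClpP 10 microg/mL final; 20 min RT; delta FRET normalized to ADEP and DMSO controls.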
PINK1 expr mod: A Quantitative High throughput Screen to Identify Chemical Modulators of PINK1 Expression; PINK1 immunofluorescence, high-content cytometry, 24 h; Potency, µM (highest dose often 76.6 µM), without a hit: at the highest dose activation (PINK1 increase), hits mostly activators; 0.2% of 410,000 active; AID 624263, 2012; active = well fitted activation curve with a large enough effect; inconclusive = small, poorly fitted or top-dose-only effect; inactive = flat fitted curve, though single readings scatter; cell line not stated here;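 further: % of control where 0% means no effect; nearly all actives have a fitted effect of over 65% in size; a mitochondrial uncoupler was the plate control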
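Cells are seeded, rested 12 hours, then given compound at five concentrations or DMSO for 24 hours. After fixation, blocking and antibody staining, PINK1 amount and mitochondrial localization are scored; CCCP serves as control.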
* marks the source's active call; other numbers are inactive results; ? = inconclusive. Potency means the concentration at half of the fitted maximal effect. The list is partial (hit frequency here may not be typical).

Under each structure: ClpP mod | PINK1 expr mod
O=C(Nc1ccc(Cl)c(-c2nc3cc(Cl)ccc3o2)c1)c1cc2ccccc2o1
 : ? | 2.3%
COc1ccc2nc(NC(=O)c3nc(SCc4ccccc4F)ncc3Cl)sc2c1
 : -0.7% | 0.9%
Cc1oc2ccc(O)c(CN3CCOCC3)c2c1C(=O)Nc1ccc(C(C)C)cc1
 : -2.3% | 2.1%
COc1ccccc1CNS(=O)(=O)c1ccc2c(c1)NC(=O)C(C)C(=O)N2 (stereo not given)
 : -7.9% | 2.8%
O=C(C1=NOC2(C1)C(=O)Nc1ccccc12)N1CCCC1 (stereo not given)
 : 1.1% | -1.1%
Cc1nnc(N2C(=O)c3oc4ccccc4c(=O)c3C2c2ccc(Cl)cc2)s1 (stereo not given)
 : 2.1% | 1.1%
CCOc1ccc(-c2nnc(SCC(=O)Nc3ccccc3C(F)(F)F)o2)cc1
 : -20% | 8.6%
Cc1ccc(-n2nnc(-c3nsc(NC(=O)c4ccccc4C)n3)c2C)cc1Cl
 : 0.7% | 9.4%
Cc1ccc(OCCn2c(-c3ccc(Br)cc3)nc3ccccc3c2=O)cc1C
 : -4.6% | 1.1%
Cc1cccc(NS(=O)(=O)c2ccc3c(c2)CCCN3C(=O)C2CCC2)c1C
 : -4.4% | -0.4%
CCS(=O)(=O)N1CCc2cc(C(=O)NCc3ccc(Cl)cc3)ccc21
 : -0.3% | 0.8%
CCOc1cc(C2Nc3ccccc3C(=O)N2Cc2ccco2)ccc1OCc1ccccc1Cl (stereo not given)
 : 4.2% | 0.4%
COc1ccccc1/C=C/c1nc(C#N)c(N2CCCCCC2)o1
 : 4.2% | 0.4%
CCOc1ccccc1NC(=O)N(Cc1ccc(F)cc1)C1CCN(CC)CC1
 : -0.9% | -1.0%
Cc1ccccc1CNC(=O)c1ccc(NC(=O)N2CCCCc3ccccc32)cc1
 : -2.0% | -1.4%
O=C(Nc1ccccc1F)C1CCN(S(=O)(=O)c2ccc3c(c2)CCCN3C(=O)C2CCC2)CC1
 : -1.8% | -0.3%
NC(=O)COc1ccccc1C(=O)Nc1ccccc1
 : -1.7% | -0.7%
CCN(CC)CCCNC(=O)Cn1ncc2c3ccccc3n(Cc3ccccc3)c2c1=O
 : ? | -0.1%
Cc1ccc(-n2nc(CO)c(C(=O)NC(C)CCCc3ccccc3)n2)cc1 (stereo not given)
 : 32µM* | -0.3%
COCCNC(=O)CCC(=O)N1Cc2cccc(OC)c2Oc2ncccc21
 : -0.7% | -0.5%
COc1ccc(NC(=O)c2ccc(NC(=O)N3CCSc4ncccc43)cc2)cc1
 : 4.0% | 3.6%
Cc1ccc(C)c(N2CCN(C(=O)c3ccc(Nc4nc5ccccc5n5nnnc45)cc3)CC2)c1
 : -5.9% | 2.1%
Cc1coc2c(C)c3oc(=O)c(CC(=O)NCCc4ccc(Cl)cc4)c(C)c3cc12
 : -11% | 1.9%
Cc1cccc(NC(=O)c2oc3ccc(S(=O)(=O)N4CCC5(CC4)OCCO5)cc3c2C)c1C
 : -5.6% | 3.8%
CCOc1ccccc1C(=O)Nc1c(NC)c2ccccc2oc1=O
 : -0.8% | -1.8%
CCOC(=O)C1CCN(C(=O)C2CCN(C3=NS(=O)(=O)C(c4ccc(C)c(C)c4)=C3C)CC2)CC1
 : -1.2% | 3.1%
COc1cccc(N2CCN(C(=O)c3cccn3-c3nnc(N4CCCC4)s3)CC2)c1
 : -3.5% | -1.1%
COc1ccccc1C(=O)Nc1nc2nc(C)cc(=O)n2[nH]1
 : -13% | 1.1%
CN(C)c1oc(-c2ccc(COc3ccccc3)o2)nc1C#N
 : 32µM* | -0.2%
Cc1cc(NS(=O)(=O)c2ccc(NC(=O)COc3ccccc3Br)cc2)no1
 : -2.0% | -1.4%
COc1ccc(CNC(=O)Cn2nnc(-c3ccccc3F)n2)cc1
 : -2.3% | 0.1%
Cc1ccc(NC(=O)Cn2c(=O)n(CCC(=O)NCc3ccc4c(c3)OCO4)c(=O)c3sccc32)c(C)c1
 : 1.4% | 0.5%
CCOc1ccc(-c2nc(SCC(=O)Nc3ccc(C)c(C)c3)n3[nH]c(=O)cc3n2)cc1
 : -6.5% | 0.6%
CCOC(=O)c1c(C)[nH]c(C)c1S(=O)(=O)NCC(=O)N1CCN(c2ccccc2F)CC1
 : -0.3% | 1.7%
CCCSC1=NC2(CCN(C(=O)NC3CCCCC3)CC2)N=C1c1ccc(Cl)cc1
 : 0.2% | 1.2%
CCOc1ccc(NC(=O)CCn2cccn2)cc1
 : -1.2% | 0.1%
COC(=O)c1c(NC(=O)c2cc(=O)c3cc(C)cc(C)c3o2)sc2c1CCC2
 : 1.2% | 28%
Cc1ccc(-c2nnc(Nc3ccc(Br)cc3)c3ccccc23)cc1S(=O)(=O)N1CCN(C)CC1
 : -5.3% | -0.3%
CCCCC[C@H](C)N1C[C@H](COCc2ccccc2)Oc2cc(N3CC[C@H](O)C3)ccc2S1(=O)=O
 : -29% | 2.9%
CC(C)N(Cc1ccccc1)C(=O)c1nc(-c2ccc(Cl)cc2)n2c1CCCCC2
 : -0.8% | ?
CC(C)=CCC[C@H](C)C[C@@H]1CC2=C(C(=O)OC(C)(C)O2)[C@@H](c2ccc(F)cc2)O1
 : 0.3% | 1.8%
C[C@H]1COc2cccc(N3CCC[C@@H]3CO)c2S(=O)(=O)N1
 : 0.2% | -0.5%
CCOc1ccc(-c2cn3c(n2)sc2cc(C(=O)NCCCN4CCCCC4)ccc23)cc1
 : -18% | 3.6%
COc1ccccc1CNC(=O)c1cccc(N2CCCS2(=O)=O)c1
 : -3.5% | 5.5%
C#CCn1c(C2CC(=O)N(c3ccc(OC)cc3)C2)nc2ccccc21 (stereo not given)
 : -0.7% | -0.4%
COc1ccc(Cl)cc1NC(=O)CSc1nnc(C)n2c1cc1occc12
 : -3.4% | 5.6%
Cc1ccccc1NC(=O)Cn1c(SCC(=O)Nc2ccc(F)cc2)nc2ccccc21
 : 1.5% | 9.8%
Cc1ccc(C2N3CC4(C)CN2CC(c2ccccc2)(C3)C4=O)cc1 (stereo not given)
 : -0.1% | 1.8%
C[C@H](c1ccccc1)N1C[C@H](COCc2ccccc2)Oc2cc(N3CC[C@H](O)C3)ccc2S1(=O)=O
 : -20% | -0.2%
CC1CCN(c2nc3c(S(=O)(=O)c4ccccc4)nnn3c3ccsc23)CC1
 : -11% | 0.9%

Next part:
Under each structure: ClpP mod | PINK1 expr mod
CCOC(=O)c1sc2cccc(F)c2c1S(=O)(=O)Nc1ccccc1F
 : 1.7% | -0.2%
COc1cc2ncc3c(-c4ccccc4)nn(-c4ccc(C)cc4)c3c2cc1OC
 : -22% | 3.0%
CCOc1ccc(CNC(=O)c2cc3c(=O)oc4ccc(C)cc4c3s2)cc1
 : 0.3% | 1.4%
CCn1c(=O)cc(OCC(=O)N2CCN(c3ccc(C)cc3)C(C)C2)c2ccccc21 (stereo not given)
 : -15% | 1.1%
CCCNc1nc2c(c(=O)n(C)c(=O)n2C)n1CC(O)COc1ccccc1 (stereo not given)
 : 0.0% | -0.8%
O=C(Nc1ccccc1F)c1nc(SCc2ccc(F)cc2)ncc1Cl
 : 36% | 0.6%
CCc1ccccc1NC(=O)Cn1nnc(C(=O)NCc2ccco2)c1N
 : -0.9% | 7.5%
COc1cc2[nH]c(=O)n(CCCCCC(=O)N3CCN(c4cccc(C(F)(F)F)c4)CC3)c(=O)c2cc1OC
 : -11% | 1.6%
CCOC(=O)c1cc2c(=O)n3ccccc3nc2n(Cc2ccco2)c1=NC(=O)c1cccc(F)c1
 : 4.4% | 7.5%
COc1ccc(CCNC(=O)CCCn2c(=O)c3ccccc3n(Cc3c(C)cc(C)cc3C)c2=O)cc1OC
 : -3.0% | 0.6%
CC(C)Cn1c(-c2ccccc2Cl)nc2ccccc21
 : -0.3% | 0.3%
Cc1ccc(N(C)C(CNS(=O)(=O)c2ccccc2)c2ccccc2)cc1 (stereo not given)
 : -6.1% | ?
CCOC(=O)c1c(C)[nH]c(C)c1S(=O)(=O)N(C)CC(=O)Nc1ccc(C)cc1C
 : -0.2% | 0.1%
COc1ccc(-c2ccc(-c3noc(-c4cc(OC)cc(OC)c4)n3)c(OC)n2)cc1
 : 16µM* | 2.1%
C=CCc1c(C)nc2nc(SCC(=O)Nc3ccc(C)c(C)c3)nn2c1C
 : -5.1% | 1.3%
Cn1c(=O)sc2cc(NS(=O)(=O)c3ccc(C(C)(C)C)cc3)ccc21
 : -2.0% | 0.8%
CCCCC[C@H]1CCCCC[C@@H](O)C[C@@H](O)[C@@H](O)/C=C/C(=O)O1
 : -0.9% | 1.5%
COc1ccc(OC)c(NC(=O)CN(C)S(=O)(=O)c2ccc(C(=O)N3CCOCC3)s2)c1
 : -1.3% | 0.0%
Cc1ccn2c(Nc3c(C)cccc3C)c(-c3ccsc3)nc2c1
 : 4.6% | 6.0%
CCCCN1CC(c2nc3ccccc3n2CCCCOc2cc(C)cc(C)c2)CC1=O (stereo not given)
 : -1.6% | 7.8%
O=C(NC1CC(=O)N(c2ccc(F)cc2)C1)c1ccc(S(=O)(=O)N2CCCCC2)cc1 (stereo not given)
 : 0.5% | 2.4%
CCOc1ccc(-c2nn(-c3ccc(F)cc3)c3c2cnc2ccc(F)cc23)cc1
 : -15% | 0.4%
Brc1cccc(-c2nnn3c2nc(NCc2ccc4c(c2)OCO4)c2ccccc23)c1
 : 23% | 0.3%
Cc1csc2nc(-c3ccc(NS(=O)(=O)c4cccc(F)c4)cc3)cn12
 : 1.6% | -3.7%
Cc1ccc(-n2ncc3c(N4CCN(C)CC4)ncnc32)cc1
 : 3.9% | -0.1%
O=C1NC[C@@H](CCCCN2C[C@H](Cc3ccc(O)cc3)N(CC3CCCCC3)C(=O)C2=O)N(Cc2ccccc2)C1=O
 : 1.4% | -0.7%
CCc1ccc(Nc2nnc(-c3cc4cc(OC)ccc4oc3=O)s2)cc1
 : -0.3% | 1.8%
CCN1CCN(c2nc3c(S(=O)(=O)c4ccc(Br)cc4)nnn3c3ccsc23)CC1
 : -15% | 0.2%
COC(=O)c1sccc1S(=O)(=O)N(CC(=O)Nc1cc(C)ccc1C)c1ccc(C)c(C)c1
 : -0.5% | 2.5%
Cc1ccccc1C(=O)Nc1nnc(S(=O)(=O)N2CCc3ccccc32)s1
 : 0.7% | 1.4%
CN(C)C1(CNC(=O)COc2cccc(Cl)c2)CCCCC1
 : -2.0% | -0.6%
CCCCNC(=O)C1CCN(S(=O)(=O)c2cc(Br)cc3c2N(C(=O)CC)CC3)CC1
 : -0.4% | 3.1%
CCOc1ccc(NC(=O)CSc2ccc3ccccc3n2)cc1
 : -0.6% | 0.7%
O=C(COc1ccccc1)Nc1sc2c(c1C(=O)Nc1ccccc1)CCCCC2
 : -0.9% | 7.6%
COc1ccccc1CNC(=O)C1(c2cccs2)CCOCC1
 : 0.1% | 2.3%
Cc1nc(N2CCOCC2)c2c(C(=O)NCc3cccc(Cl)c3)c(C)oc2n1
 : 1.1% | -9.6%
Cc1nnc(N2CCC(C(=O)NCc3ccc(F)cc3)CC2)c2nn(-c3ccc(Cl)cc3)c(C)c12
 : 4.4% | -0.9%
CCCCC(CC)CNC(=O)c1ccc(Cn2c(=O)[nH]c3cc(OC)c(OC)cc3c2=O)cc1 (stereo not given)
 : -13% | 0.3%
CCOC(=O)c1c(C)n(-c2ccccc2)c2ccc(OC(=O)c3ccc(OCC)c(OCC)c3)cc12
 : -30% | 2.0%
Cc1cc(C)cc(NC(=O)c2cc(CN3CCCC3)on2)c1
 : -2.4% | 2.1%

Part of the list above in a different format:
COc1cc2ncc3c(-c4ccccc4)nn(-c4ccc(C)cc4)c3c2cc1OC
  ClpP mod: -22%	PINK1 expr mod: 3.0%
CCOc1ccc(CNC(=O)c2cc3c(=O)oc4ccc(C)cc4c3s2)cc1
  ClpP mod: 0.3%	PINK1 expr mod: 1.4%
CCn1c(=O)cc(OCC(=O)N2CCN(c3ccc(C)cc3)C(C)C2)c2ccccc21 (stereo not given)
  ClpP mod: -15%	PINK1 expr mod: 1.1%
CCCNc1nc2c(c(=O)n(C)c(=O)n2C)n1CC(O)COc1ccccc1 (stereo not given)
  ClpP mod: 0.0%	PINK1 expr mod: -0.8%

The list continues:
Under each structure: ClpP mod | PINK1 expr mod
CCN(C)C1CN(Cc2cn(Cc3ccc(C(F)(F)F)cc3)nn2)S(=O)(=O)C1 (stereo not given)
 : -1.7% | 0.2%
O=C(NCCc1csc(-c2ccc(F)cc2)n1)c1cccs1
 : -3.3% | -0.5%
Cn1c2c(c3cnc4cc(Cl)ccc4c31)CNCC2
 : -4.7% | -0.5%
Cc1ccc(CNC(=O)CSc2n[nH]c(-c3ccc(F)cc3)n2)cc1
 : -2.1% | 0.3%
COc1ccccc1NC(=O)Cn1c(=O)n(Cc2ccccc2)c(=O)c2sc3ccccc3c21
 : -4.5% | -0.3%
CCn1c(=O)cc(OCC(=O)N2CCN(c3ccccc3OC)CC2)c2ccccc21
 : -12% | 1.6%
CC(=O)c1cccc(NC(=O)Cn2c(=O)oc3cc(S(=O)(=O)NC4CCCC4)ccc32)c1
 : 0.7% | 4.5%
